FGF22 binding: binders of human FGF22 protein, primary screen, FGF22 synaptogenesis inhibitor project, biophysical, thermal shift, single point | calls only at 9.99 µM | 340,000 tested, 1.5% active | recombinant FGF22 thermal shift, SYPRO orange fluorescence; percent of sucrose octasulfate shift, DMSO zero;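 active = melting point raised past a set limit in the mean and every replicate; three in four hits are not shown here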
Target sequence (Q9HCT0 whole entry, looked up): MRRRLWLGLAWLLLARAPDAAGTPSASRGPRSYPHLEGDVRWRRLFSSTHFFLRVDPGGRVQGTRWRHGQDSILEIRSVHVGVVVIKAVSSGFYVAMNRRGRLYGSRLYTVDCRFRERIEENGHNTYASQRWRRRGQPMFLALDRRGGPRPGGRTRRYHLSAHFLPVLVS
rRNA inh HTS: reduced GFP signal of wild-type E. coli, primary screen, bacterial rRNA inhibitor project, GFP/RFP fluorescence, OD600, single point | E. coli WT GFP vs humanized-ribosome RFP mutants, 24 h; stronger effect = lower value; DMSO median 0, no signal -100 | GFP signal change (wild-type ribosome), % (no concentration beside the values) | 350,000 tested, 1.6% active | AID 720706, 2013;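 active = significant combined selectivity score with lowered wild-type GFP, culture density cut under 30%, mutant RFP and density less affected; inactive = any of these conditions unmet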; also: one replicate is shown; some compounds called inactive have numbers as strong as hits
rRNA inh HTS OD600: also measured in rRNA inh HTS; calls as there; OD600 change, %; measured here: OD600 growth;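 optical density of the mix in the first replicate; 0 = DMSO median and -100 = no signal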
rRNA inh HTS RFP: recorded beside rRNA inh HTS, whose call it bears; RFP signal change, %; measured here: RFP humanized mutant strains;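 first replicate; 0 = DMSO median and -100 = no signal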
* marks the source's active call; other numbers are inactive results; i = inactive.

#1 COC(=O)[C@H]1[C@H](CO)[C@H]2Cn3c(ccc(C4=CCCC4)c3=O)[C@H]2N1C(=O)Cc1cccnc1
#2 CCCN1[C@@H]2Cn3c(ccc(C4=CCCCC4)c3=O)[C@H]1[C@@H](C(=O)N1CCOCC1)[C@@H]2CO
#3 Cc1noc(C)c1S(=O)(=O)Nc1ccc2c(c1)C(=O)N([C@H](C)CO)C[C@H](C)[C@@H](CN(C)C(=O)CCCN(C)C)OCCCC[C@H](C)O2
#4 COCC(=O)N(C)C[C@@H]1[C@@H](c2ccccc2)[C@H](CO)N1C(=O)NC(C)C
#5 C[C@H](CO)N1C[C@H](C)[C@H](CN(C)C(=O)Cc2ccccn2)Oc2cc(C#Cc3ccccc3)ccc2S1(=O)=O
#6 CC1C=NC(S(=O)(=O)N2CC[C@@H]3[C@@H](CO)N(C)c4ccc(-c5cccc(F)c5)cc4[C@@H]32)=N1 (stereo partly drawn)
#7 CC=Cc1ccc2n(c1=O)C[C@H]1[C@H](CO)[C@@H](C(=O)NCC(F)(F)F)N(C(=O)c3cccnc3)[C@@H]21 (mixture of isomers)
#8 C[C@H]1CN([C@@H](C)CO)C(=O)c2cc(NC(=O)C3CC3)ccc2O[C@H]1CN(C)CC1CCCCC1
Screen / compound no.,1,2,3,4,5,6,7,8
FGF22 binding,i,i,i,i,i,i,i,i
rRNA inh HTS,2.1,3.0,-0.2,2.1,-11.0,-34.8,-0.3,3.9
rRNA inh HTS OD600,15.5,6.0,2.8,1.5,-26.9,-63.8,-12.1,9.0
rRNA inh HTS RFP,-0.2,-2.2,0.8,1.3,9.4,-3.6,-0.9,-1.2

#9 C[C@@H](O)C#Cc1ccc([C@H]2[C@H]3CN(CC4CC4)CCCCN3[C@H]2CO)cc1
#10 CO[C@@H]1CN(C)C(=O)c2cc(NS(C)(=O)=O)ccc2OC[C@H](C)N(C(=O)CN(C)C)C[C@H]1C
#11 COc1ccc2c3c(n(C)c2c1)[C@H](CO)N(C(=O)Nc1ccccc1F)CC31CCN(C(C)=O)CC1
#12 COc1ccc(NC(=O)N(C)C[C@@H]2Oc3ccc(NS(=O)(=O)c4cccs4)cc3C(=O)N([C@H](C)CO)C[C@@H]2C)cc1
#13 O=C(C[C@H]1CC[C@H]2[C@@H](COC[C@@H](O)CN2C(=O)Nc2ccc(Cl)cc2)O1)NCc1ccncn1
#14 C[C@H](CO)N1C[C@H](C)[C@@H](CN(C)S(=O)(=O)c2ccc(F)cc2)Oc2ncc(C#CC3(O)CCCC3)cc2C1=O
#15 COC(=O)C[C@H]1CC[C@@H]2[C@H](COc3ccc(NC(=O)c4ccc(F)cc4)cc3C(=O)N2C)O1
#16 C[C@@H]1CCCCO[C@@H](CN(C)S(=O)(=O)c2ccccc2)[C@@H](C)CN([C@@H](C)CO)C(=O)c2cc(NS(=O)(=O)c3ccc(Cl)cc3)ccc2O1
Screen / compound no.,9,10,11,12,13,14,15,16
FGF22 binding,i,i,i,i,i,i,i,i
rRNA inh HTS,2.9,-1.7,1.4,-3.6,-25.8,-3.9,0.4,1.4
rRNA inh HTS OD600,26.1,1.9,5.6,-2.1,-38.7,-4.5,7.3,1.7
rRNA inh HTS RFP,0.6,-2.6,-0.8,-1.6,-1.5,-0.6,0.2,-2.1

Ordered by heavy-atom count (high to low): 5 of the compounds above
#16 C[C@@H]1CCCCO[C@@H](CN(C)S(=O)(=O)c2ccccc2)[C@@H](C)CN([C@@H](C)CO)C(=O)c2cc(NS(=O)(=O)c3ccc(Cl)cc3)ccc2O1
#12 COc1ccc(NC(=O)N(C)C[C@@H]2Oc3ccc(NS(=O)(=O)c4cccs4)cc3C(=O)N([C@H](C)CO)C[C@@H]2C)cc1
#14 C[C@H](CO)N1C[C@H](C)[C@@H](CN(C)S(=O)(=O)c2ccc(F)cc2)Oc2ncc(C#CC3(O)CCCC3)cc2C1=O
#11 COc1ccc2c3c(n(C)c2c1)[C@H](CO)N(C(=O)Nc1ccccc1F)CC31CCN(C(C)=O)CC1
#10 CO[C@@H]1CN(C)C(=O)c2cc(NS(C)(=O)=O)ccc2OC[C@H](C)N(C(=O)CN(C)C)C[C@H]1C
Screen / compound no.,16,12,14,11,10
FGF22 binding,i,i,i,i,i
rRNA inh HTS,1.4,-3.6,-3.9,1.4,-1.7
rRNA inh HTS OD600,1.7,-2.1,-4.5,5.6,1.9
rRNA inh HTS RFP,-2.1,-1.6,-0.6,-0.8,-2.6

Later entries.
#17 C[C@@H]1CN([C@@H](C)CO)C(=O)c2cc(NS(=O)(=O)c3cccs3)ccc2O[C@H]1CN(C)Cc1ccc(-c2ccccc2)cc1
#18 CO[C@H]1CN(C)C(=O)c2cc(NC(=O)C3CC3)ccc2OC[C@@H](C)N(C(=O)CN2CCOCC2)C[C@H]1C
#19 COc1ccc(S(=O)(=O)Nc2ccc3c(c2)[C@@H]2C[C@@H](CC(=O)NCC4CC4)O[C@@H](CO)[C@@H]2O3)cc1
#20 CCNC(=O)C[C@@H]1CC[C@@H]2[C@H](COC[C@H](O)CN2C(=O)CC)O1
#21 CCCNC(=O)N1C[C@@H](O)COC[C@H]2O[C@H](CC(=O)N[C@H]3CCN(Cc4ccccc4)C3)CC[C@@H]21
#22 C[C@H]1CN([C@@H](C)CO)C(=O)c2cc(-c3cccc(F)c3)cnc2O[C@@H]1CN(C)C(=O)Nc1cc(F)ccc1F
#23 Cc1ccccc1S(=O)(=O)N1CCCCN2[C@H](CO)[C@@H](c3ccc(C#CCN(C)C)cc3)[C@H]2C1
#24 Cc1noc(C)c1NC(=O)N(C)C[C@H]1Oc2cc(C#CCN(C)C)ccc2S(=O)(=O)N([C@@H](C)CO)C[C@@H]1C
Screen / compound no.,17,18,19,20,21,22,23,24
FGF22 binding,i,i,i,i,i,i,i,i
rRNA inh HTS,5.7,3.8,-5.4,2.4,-0.7,-8.2,4.1,-1.3
rRNA inh HTS OD600,-6.2,-3.6,-9.7,9.7,-4.0,-0.9,15.4,11.4
rRNA inh HTS RFP,14.5,-0.2,-0.9,-0.3,0.8,-0.2,0.1,2.3

#25 CCc1csc(N2[C@H](C#N)[C@H](c3ccc(-c4cccc(F)c4)cc3)[C@H]2CO)n1
#26 Cc1ccc(S(=O)(=O)N[C@@H]2CC[C@H](CCNC(=O)Nc3ccc(Cl)cc3)O[C@@H]2CO)cc1
#27 C[C@@H](NC(=O)C[C@H]1CC[C@H]2[C@@H](COc3ccc(NC(=O)C4CCOCC4)cc3C(=O)N2C)O1)c1ccccc1
#28 CC(=O)N(C)C[C@@H]1Oc2cc(C#Cc3ccccc3F)ccc2S(=O)(=O)N([C@@H](C)CO)C[C@@H]1C
#29 CCC(=O)N1[C@H](CO)[C@H]2c3ccccc3N(S(=O)(=O)c3ccccc3F)C[C@H]21
#30 C[C@@H]1CN([C@H](C)CO)C(=O)c2cc(NS(=O)(=O)c3cccs3)ccc2O[C@@H](C)CCCCO[C@@H]1CN(C)CC1CCCCC1
#31 CC(C)NC(=O)Nc1ccc2c(c1)CC(=O)N([C@H](C)CO)C[C@H](C)[C@H](CN(C)C(=O)Nc1cccc3ccccc13)O2
#32 CO[C@@H]1CN(C)C(=O)c2ccc(NS(=O)(=O)c3ccc(C)cc3)cc2OC[C@H](C)NC[C@@H]1C
Screen / compound no.,25,26,27,28,29,30,31,32
FGF22 binding,i,i,i,i,i,i,i,i
rRNA inh HTS,-17.2,-9.8,0.9,-6.7,-0.6,2.8,0.3,1.8
rRNA inh HTS OD600,-32.4,-19.1,2.4,-27.9,5.4,-13.6,4.3,1.2
rRNA inh HTS RFP,-5.5,14.8,-0.6,16.4,-2.7,7.8,-0.9,-0.2

#33 CN(C)CC(=O)N1CC[C@@H]2[C@@H](CO)N(C)c3ccc(Br)cc3[C@@H]21
#34 O=C(Nc1cccc(F)c1)N1C[C@@H]2[C@H](c3ccccc31)[C@H](CO)N2C(=O)c1ccccc1F
#35 CCCNC(=O)N1C[C@@H](O)COC[C@@H]2O[C@@H](CC(=O)N[C@H]3CCN(Cc4ccccc4)C3)CC[C@H]21
#36 O=C(C[C@@H]1C=C[C@@H](NS(=O)(=O)c2cccc(F)c2)[C@@H](CO)O1)NCc1ccc2c(c1)OCO2
#37 C[C@@H]1CN([C@H](C)CO)C(=O)c2cc(C3=CCCC3)cnc2O[C@H]1CN(C)Cc1ccc(C(=O)O)cc1
#38 CCC(=O)Nc1ccc2c(c1)OC[C@@H](C)N(Cc1cccc(F)c1)C[C@H](C)[C@H](OC)CN(C)C2=O
#39 COc1ccc(S(=O)(=O)Nc2ccc3c(c2)C(=O)N([C@H](C)CO)C[C@@H](C)[C@@H](CN(C)CC2CCCCC2)OCCCC[C@H](C)O3)cc1
#40 C[C@H]1CN([C@@H](C)CO)C(=O)Cc2cc(NS(=O)(=O)c3ccc(F)cc3)ccc2O[C@H]1CN(C)Cc1ccc2c(c1)OCO2
Screen / compound no.,33,34,35,36,37,38,39,40
FGF22 binding,i,i,i,i,i,i,i,i
rRNA inh HTS,4.6,-4.9,-0.8,-3.7,2.0,-7.5,-12.5,-1.1
rRNA inh HTS OD600,1.8,-14.3,-2.2,9.3,7.3,-10.1,-24.7,2.9
rRNA inh HTS RFP,-4.2,-0.8,-0.3,-0.8,-2.6,3.6,12.5,4.0

Quoted from the listing:
For rRNA inh HTS RFP, cpd 35 has -0.3
For rRNA inh HTS RFP, cpd 7 has -0.9
For rRNA inh HTS OD600, cpd 15 has 7.3
For rRNA inh HTS RFP, cpd 21 has 0.8
For rRNA inh HTS, cpd 4 has 2.1
For rRNA inh HTS OD600, cpd 34 has -14.3
For rRNA inh HTS RFP, cpd 22 has -0.2

Later entries
#41 CCC(=O)N1C[C@H](C)[C@@H](OC)CN(C)C(=O)c2cc(NC(=O)Nc3cccc(F)c3)ccc2OC[C@@H]1C
#42 C[C@H](CO)N1C[C@H](C)[C@@H](CN(C)C(=O)Cc2cccnc2)Oc2cc(C3=CCCCC3)ccc2S1(=O)=O
#43 CN(C)CC#Cc1ccc([C@@H]2[C@@H](CO)N3CCCCN(CC4CC4)C[C@H]23)cc1
#44 Cc1noc(C)c1NC(=O)Nc1ccc2c(c1)C(=O)N([C@H](C)CO)C[C@@H](C)[C@H](CN(C)C)OCCCC[C@@H](C)O2
#45 O=C(Nc1ccccc1)N[C@H]1CC[C@@H](CCNS(=O)(=O)c2cccc(F)c2)O[C@H]1CO
#46 O=C(C[C@@H]1CC[C@@H]2[C@H](COC[C@H](O)CN2C(=O)Nc2cccc(Cl)c2)O1)N1CCCCC1
#47 C[C@@H]1CN([C@H](C)CO)C(=O)c2cc(NS(=O)(=O)c3cn(C)cn3)ccc2O[C@@H](C)CCCCO[C@@H]1CN(C)S(=O)(=O)c1ccc(F)cc1
#48 C[C@@H]1CN([C@@H](C)CO)C(=O)c2cccc(NC(=O)C3CCOCC3)c2O[C@@H]1CN(C)Cc1ccc(Cl)c(Cl)c1
Screen / compound no.,41,42,43,44,45,46,47,48
FGF22 binding,i,i,i,i,i,i,i,i
rRNA inh HTS,-2.3,-4.9,5.8,6.2,-3.0,-58.4,-2.0,-2.3
rRNA inh HTS OD600,-5.2,-7.0,6.2,1.2,-3.0,-79.1,-7.4,6.4
rRNA inh HTS RFP,-1.1,-0.5,0.8,-2.5,-0.6,-17.7,0.4,-2.7

#49 COC(=O)N[C@H]1CC=C[C@@H]1Cc1cccc(Oc2ccccc2)c1
#50 Cc1cccc(S(=O)(=O)N2CCCCN3[C@@H](CO)[C@H](c4ccc(C#C[C@H](C)O)cc4)[C@@H]3C2)c1
#51 C[C@H]1CN([C@@H](C)CO)C(=O)c2cccc(NC(=O)CCCCCC(=O)Nc3ccccc3N)c2O[C@H]1CN(C)C(=O)Nc1ccc(C(F)(F)F)cc1
#52 CC(C)CC#Cc1ccc2c(c1)O[C@H](CN(C)C(=O)Nc1ccccc1)[C@H](C)CN([C@H](C)CO)S2(=O)=O
#53 C[C@H]1CN([C@@H](C)CO)C(=O)c2cc(NC(=O)CCC(F)(F)F)ccc2O[C@@H]1CN(C)S(=O)(=O)c1cn(C)cn1
#54 Cc1noc(C)c1NC(=O)Nc1ccc2c(c1)CC(=O)N([C@@H](C)CO)C[C@@H](C)[C@H](CN(C)C(=O)Nc1cccc3ccccc13)O2
#55 CCCC(=O)Nc1ccc2c(c1)C(=O)N(C)C[C@@H](OC)[C@@H](C)CN(CCC(F)(F)F)[C@@H](C)CO2
#56 C[C@@H]1CN([C@@H](C)CO)C(=O)c2cccc(NC(=O)c3ccncc3)c2O[C@H]1CN(C)C(=O)Nc1cccc2ccccc12
Screen / compound no.,49,50,51,52,53,54,55,56
FGF22 binding,i,i,i,i,i,i,i,i
rRNA inh HTS,10.3,-5.0,-1.0,-5.8,4.3,0.6,2.9,3.4
rRNA inh HTS OD600,12.3,-3.8,-3.0,-12.2,9.0,3.3,3.0,6.9
rRNA inh HTS RFP,-3.3,6.4,-0.8,-1.2,-2.5,1.9,0.3,3.2

From PubChem

The list is partial. The share of hits here may be higher or lower than overall.
